High-throughput results deposited in PubChem BioAssay by Broad Institute.
T cruzi repl: blocks replication of Trypanosoma cruzi; 1.4% of 300,000 active; inhibition, % (test concentration not listed); AID 1885; T. cruzi beta-gal in NIH3T3, luminescence, 90 h;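 active means mean inhibition across valid replicates above about 55%, limit read from the data; inconclusive means mean below that limit but half or more replicates reach it; inactive means mean below it, under half of replicates reach it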;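 further: signal also drops with host cell toxicity which is not excluded here; 0% = plate median of DMSO wells and 100% = zero luminescence signal; higher percent means less beta-gal luminescence so fewer parasites; stock transfer was 50 nL into about 50 µL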
Calb FLC: affects C. albicans growth with fluconazole | C. albicans CaCi-2 (fluconazole-resistant clinical isolate) + fluconazole, Alamar Blue growth, 48 h | growth inhibition, % (no concentration beside the values) | 0.57% of 300,000 active | AID 1979;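 active means most replicates above 75%; inconclusive means exactly half above 75%; inactive means most below 75%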;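 further: all wells also contain fluconazole at 8 µg/ml as a sub-toxic cotreatment; 0% = median of DMSO wells and 100% = median of geldanamycin control wells; wells of about 8 µL received 7.5 nL stock; the first replicate is given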
MLL AF4-AF9 inh: MLL-AF4/AF9 protein interaction inhibition. inhibition, % at 10 µM. 0.47% of 350,000 active. AlphaScreen, biotin-AF4 peptide binding to FLAG-AF9. P42568;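 active means every replicate reaching a set inhibition limit, whatever the replicate mean, cut at about 25% in these data; inconclusive means mean inhibition reaches that limit but some replicates miss it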;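 further: 0% = plate neutral control median and 100% = total signal loss; the record names both 10 and 1 µM as test concentration; the first replicate is given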
Target sequence (P42568 whole entry, looked up): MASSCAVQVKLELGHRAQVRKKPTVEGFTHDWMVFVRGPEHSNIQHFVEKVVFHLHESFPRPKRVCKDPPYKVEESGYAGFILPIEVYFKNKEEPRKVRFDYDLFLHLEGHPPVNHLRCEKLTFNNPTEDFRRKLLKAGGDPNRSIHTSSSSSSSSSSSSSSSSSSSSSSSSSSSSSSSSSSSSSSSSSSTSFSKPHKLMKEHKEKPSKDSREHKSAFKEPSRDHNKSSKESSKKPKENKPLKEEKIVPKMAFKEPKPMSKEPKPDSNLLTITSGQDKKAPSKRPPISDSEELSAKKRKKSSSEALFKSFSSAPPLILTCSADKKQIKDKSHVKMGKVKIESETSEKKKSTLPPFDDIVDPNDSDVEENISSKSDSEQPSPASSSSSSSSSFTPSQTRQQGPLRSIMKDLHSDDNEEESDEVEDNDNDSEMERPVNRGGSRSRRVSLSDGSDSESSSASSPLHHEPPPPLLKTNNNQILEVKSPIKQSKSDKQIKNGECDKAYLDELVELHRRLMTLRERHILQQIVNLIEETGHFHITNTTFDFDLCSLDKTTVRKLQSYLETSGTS
RanGTP-Impb inh: disruptors of Ran-importin-beta complex formation – biochemical, FRET, CFP-Ran, YFP-importin-beta, homogeneous, primary screen | cell-free CFP-Ran/YFP-importin-beta FRET ratio | inhibition, % (concentration not given with the values) | 1.1% of 300,000 active | AID 2216;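 active means most replicates above 15%; inconclusive means exactly half above 15%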;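 further: 0% = DMSO wells and 100% = Ran loaded with GDP instead of GTP; wells of about 40 µL received 100 nL stock; the first replicate is given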
ALR H2O2 inh: inhibitors of human sulfhydryl oxidase ALR; P55789; purified ALR, DTT oxidation, H2O2 HRP-luminol luminescence; inhibition, % (test concentration not listed); 3.8% of 290,000 active; AID 485317;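 active means mean and each replicate at 75% or more; inconclusive means only one of the two met; inactive means neither met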;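 further: stock transfer was 7.5 nL into about 7.5 µL; 0% = neutral wells and 100% = wells with inactivated enzyme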
Target sequence (P55789 whole entry, looked up): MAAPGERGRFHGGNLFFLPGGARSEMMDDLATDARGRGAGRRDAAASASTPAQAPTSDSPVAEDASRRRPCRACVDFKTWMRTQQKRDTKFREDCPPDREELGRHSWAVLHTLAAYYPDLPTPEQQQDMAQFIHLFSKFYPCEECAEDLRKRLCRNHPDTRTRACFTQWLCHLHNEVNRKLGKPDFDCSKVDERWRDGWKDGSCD
rRNA inh HTS: inhibits bacterial ribosomal RNA function over humanized ribosomes; E. coli WT GFP vs humanized-ribosome RFP mutants, fluorescence, 24 h; stronger effect = lower value; DMSO median 0, no signal -100; GFP signal change (wild-type ribosome), % (test concentration not listed); 1.6% of 350,000 active;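 active means significant combined selectivity score with lowered wild-type GFP, culture density cut under 30%, mutant RFP and density less affected; inactive means any of these conditions unmet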; further: one replicate is shown; some compounds called inactive have numbers as strong as hits
Beta apoptosis: beta cell apoptosis inhibition | INS-1E cytokine-induced death, ATP luminescence, 48 h; percent of positive-control rescue, neutral wells zero | protection from apoptosis, % (no concentration beside the values) | 0.8% of 300,000 active | AID 435005;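 active means all replicates at 75% or more, or half of them and the mean; inconclusive means half reach 75% but not the mean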;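 further: 0% = cytokine-treated negative control wells and 100% = positive control rescue; higher means more ATP so stronger rescue from cytokine killing; wells of about 40 µL received 100 nL stock; the first replicate is given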
FGF22 binding: binders of recombinant human FGF22 by thermal shift. SYPRO orange fluorescence; percent of sucrose octasulfate shift, DMSO zero. calls only at 9.99 µM. 1.5% of 340,000 active. AID 651658;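 active means melting point raised past a set limit in the mean and every replicate; inconclusive means no clear call; three in four hits are not shown here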
Target sequence (Q9HCT0 whole entry, looked up): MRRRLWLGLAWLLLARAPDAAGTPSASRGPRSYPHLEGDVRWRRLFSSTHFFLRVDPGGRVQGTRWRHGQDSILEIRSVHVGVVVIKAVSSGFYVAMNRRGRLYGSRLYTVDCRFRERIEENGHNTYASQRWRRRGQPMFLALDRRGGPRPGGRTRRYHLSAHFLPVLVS
rRNA inh HTS OD600: further read-out of rRNA inh HTS, marked with its call; OD600 change, %; measured here: OD600 growth;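 optical density of the mix in the first replicate; 0 = DMSO median and -100 = no signal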
rRNA inh HTS RFP: also measured in rRNA inh HTS; calls as there; RFP signal change, %; measured here: RFP humanized mutant strains;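 first replicate; 0 = DMSO median and -100 = no signal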
An asterisk follows results filed as active; i = inactive; ? = inconclusive; · = not tested or not shown. Not all compounds are listed (hit frequency here may not be typical).

Every second line gives: T cruzi repl	Calb FLC	MLL AF4-AF9 inh	RanGTP-Impb inh	ALR H2O2 inh	rRNA inh HTS	rRNA inh HTS OD600	rRNA inh HTS RFP	Beta apoptosis	FGF22 binding
- O=C(CSc1nnc(Cc2cccs2)n1Cc1ccco1)Nc1ccc(Br)cc1
    22	-18	·	-0.6	-2	·	·	·	-2	·
- CCOc1ccc(Cc2nnc(SCC(=O)Nc3ccc(C(C)=O)cc3)[nH]c2=O)cc1
    -1	4	-6.7	1.2	47	-2	-4	-0.9	0	i
- Cc1ccc2sc(NNC(=O)c3cc(-c4cccs4)nc4ccccc34)nc2c1C
    43	-7	-1.5	7.1	5	1	1	-0.5	·	i
- CCCN1c2cccc3cccc(c23)S1(=O)=O
    12	-25	·	0.7	-37	·	·	·	-6	·
- NS(=O)(=O)c1ccc(NC(=O)CSc2n[nH]c(=O)n2C2CC2)cc1
    ·	·	2.1	·	-33	5	9	5.0	1	i
- COC(=O)C1CCN(C(=O)COC(=O)c2cc(S(=O)(=O)N3CCOCC3)ccc2C)CC1
    ·	·	1.1	·	-15	8	4	-0.2	2	i
- Cc1cc(C)cc(OCCCCn2cncn2)c1
    -7	-4	0.3	-0.6	·	6	-7	-4.0	-6	i
- Cc1ccc(S(=O)(=O)NC(=O)c2cccn2C)cc1
    6	1	·	-0.6	-4	·	·	·	2	·
- COc1cc(CCC(=O)Nc2ccc(Cl)c(C(F)(F)F)c2)cc(OC)c1OC
    12	-12	3.2	1.2	·	·	·	·	2	i
- COc1ccc(OCC(=O)NCCNC(=O)c2ccccn2)cc1
    -6	-4	3.3	7.5	0	·	·	·	-5	i
- O=C(/C=C/c1ccc([N+](=O)[O-])cc1)NCc1ccccn1
    -13	0	·	-1.7	-10	·	·	·	3	·
- Cc1cccc(-n2[nH]c(C)c(C=Nc3ccc4[nH]c(=O)[nH]c4c3)c2=O)c1
    -6	3	-12	0.9	49	8	15	2.5	-4	i
- CCN(CC)CCN1c2ccccc2Sc2ccccc21
    18	-22	11	-0.5	100*	-3	-6	-3.0	1	i
- CC(=O)Oc1cccc(N2C(=O)C3CC=CCC3C2=O)c1 (stereo not drawn)
    -7	1	·	0.3	7	·	·	·	-7	·
- COc1cc(C2C(C(=O)/C=C/c3ccccc3)=C(O)C(=O)N2c2ccccn2)ccc1O (stereo not drawn)
    -13	55	2.7	-2.9	54	-34	-42	18	-5	i
- Cc1ccc(-n2c(C)cc(/C=N\NC(=O)CC(=O)NC(C)C)c2C)cc1
    -5	8	1.3	0.2	12	4	5	1.8	-9	i
- Cc1cc(C(=O)Nc2ccccc2C(=O)O)ccc1NC(=O)COc1cccc(C)c1C
    -13	3	-1.3	0.7	·	1	2	-3.0	4	i
- CN1C(=O)C2(OCC(CO)([N+](=O)[O-])CO2)c2ccccc21 (stereo not drawn)
    4	0	1.7	-8.7	-2	12	1	-2.0	-2	i
- O=C(O)C1CCN(c2ccc(Cl)nn2)CC1
    -15	15	-2.7	2.6	3	11	19	2.2	-5	i
- Cc1ccc(CSc2nc3c(c(N(C)C)n2)CCCC3)cc1
    23	?	·	9.5	-4	·	·	·	-7	·
- CCn1c(SCC(=O)Nc2ccccc2C(=O)OC)nnc1-c1ccc(N)cc1
    -6	-2	·	-1.3	-1	·	·	·	-4	·
- CCOc1cccc(CN2CCCC(C(=O)c3cccc(C(F)(F)F)c3)C2)c1O (stereo not drawn)
    24	-9	1.9	-3.1	43	1	-8	-2.7	2	i
- COc1ccc(NC(=O)CSCC(=O)NCc2cccc(C(F)(F)F)c2)cc1
    ·	·	2.1	·	-2	-5	-21	-0.7	3	i
- O=C(c1cnn2c(C(F)F)cc(-c3ccccc3)nc12)N1CCN(Cc2ccc3c(c2)OCO3)CC1
    50	-1	8.8	2.1	6	-17	-42	-0.9	12	i
- CCN1CCN(C(c2cccnc2)c2cc(Cl)c3cccnc3c2O)CC1 (stereo not drawn)
    58*	101*	·	2.3	19	·	·	·	92*	·
- c1cncc(-c2cnc3ccccc3c2)c1
    ·	·	0.2	·	9	4	14	-2.6	-7	i
- CC(C)(C)C(=O)N1CCN(c2ccc(Cl)cc2[N+](=O)[O-])CC1
    -1	8	2.1	6.3	38	-24	-21	-4.1	0	i
- CCn1c(C)c(C(C)=O)c(N2CCC(C(N)=O)CC2)nc1=S
    0	-10	·	3.0	-6	·	·	·	7	·
- O=C(O)c1ccccc1NC(c1ccccc1)c1ccc(Cl)cc1 (stereo not drawn)
    -14	55	3.2	-0.8	91*	-17	-29	0.9	-1	i
- Cc1cc(-c2nnc(SCCC(=O)Nc3ccccc3)o2)no1
    -24	19	-2.1	1.7	-6	12	13	3.8	-1	i
- Cc1ccc(NC(=O)c2ccc(Cl)nc2)cc1
    -6	19	0.4	1.2	-2	8	7	-0.4	3	i
- O=C(CSc1cccc(C(F)(F)F)c1)Nc1nnc(C2CC2)s1
    ·	·	-13	·	-4	0	2	1.0	-6	i
- COc1ccc(OC)c(/C=N/NC(=O)C(=O)N2CCCCCC2)c1
    -13	-8	1.0	-2.0	1	20	9	3.5	-8	i
- ON1C2CCCCC2N(O)C1c1ccccc1C(F)(F)F (stereo not drawn)
    -5	-1	·	2.9	-2	·	·	·	-5	·
- COc1cccc(C(=O)N2CCN(C(=O)C3COc4ccccc4O3)CC2)c1 (stereo not drawn)
    3	5	-2.8	2.9	-10	4	3	2.3	3	i
- O=C(NCc1cccnc1)Nc1ccc(Cl)cc1Cl
    3	-15	0.2	1.3	2	-2	-19	-3.6	4	i
- CC(C)(C)[C@H]1C=C(C(=O)NCc2nc3ccccc3[nH]2)O[C@@H](OCCCCO)C1
    8	-8	-2.0	3.1	-8	-11	-12	5.5	0	i
- CCOc1ccc2nc(N3CCCC(C(=O)NCCCN4C(C)CCCC4C)C3)sc2c1 (stereo not drawn)
    48	22	-1.8	-0.3	9	16	16	4.3	9	i
- COc1ccc(Cl)cc1NC(=O)c1nnn(CC(=O)Nc2cc(C)cc(C)c2)c1N
    -4	1	1.3	0.3	-3	4	12	-1.8	·	i
- CCOCCCNC(=O)C1CCCN(S(=O)(=O)c2cccc3nsnc23)C1 (stereo not drawn)
    3	-4	-5.1	6.8	1	5	-2	-0.8	-3	i
- CC(C)CO/C(=N/S(=O)(=O)c1ccccc1)c1ccccc1
    -5	-14	·	-0.8	-4	·	·	·	0	·
- CN(CC1CCCN(CCc2ccc(Cl)cc2)C1)C(=O)CC(F)(F)F (stereo not drawn)
    37	7	-3.1	-7.0	-4	6	17	1.8	-2	i
- CCc1ccc(-c2cc(C(=O)N/N=C/c3ccccn3)[nH]n2)cc1
    -9	-2	1.6	?	-8	-25*	0.8*	-6.4*	2	i
- O=C(CSc1ncc(-c2ccc(F)cc2)n1Cc1ccco1)Nc1ccc2c(c1)OCO2
    5	-1	·	1.3	-16	·	·	·	-2	·
- Cc1ccc(S(=O)(=O)N2CCC(C(=O)NNC(=O)c3ccccc3O)CC2)cc1C
    -3	-6	0.4	3.9	41	1	14	-3.5	-1	i
- CCOC(=O)C(NC(=O)CC)(Nc1ccc(S(=O)(=O)Nc2ncccn2)cc1)C(F)(F)F (stereo not drawn)
    3	-5	·	0.9	-1	·	·	·	-5	·
- Cc1ccc(S(=O)(=O)NN)c(C)c1N1CCCC1=O
    -11	-2	2.4	?	-12	12	6	-1.7	-2	i
- O=C(CSCc1ccccc1)N=Nc1c(O)[nH]c2ccccc12
    4	-16	2.5	-2.1	-1	-18	-6	0.8	·	i
- O=C(NCc1ccccc1)c1ccc2c(=O)n(CC3CCCO3)c(=S)[nH]c2c1 (stereo not drawn)
    -2	2	·	1.0	·	·	·	·	3	·
- CC1Cc2ccccc2N1C(=O)c1ccc2nccnc2c1 (stereo not drawn)
    -12	-23	-0.2	0.0	-4	2	5	-1.3	-2	i
- O=[N+]([O-])c1cccc(S(=O)(=O)Nc2ccc(Cc3ccncc3)cc2)c1
    -5	6	7.9	1.9	-4	-5	-9	-2.1	-7	i
- Cn1nnnc1SCc1ccc(C(=O)Nc2ccc(Br)cc2)cc1
    4	10	·	1.9	-4	·	·	·	5	·
- CC(C)c1ccc(OCC(=O)NC(Cc2c[nH]c3ccccc23)C(=O)O)cc1 (stereo not drawn)
    -13	0	0.4	4.9	0	12	13	1.8	-4	i
- O=C(NC(=S)Nc1ccc(Cl)cc1Cl)C1CC1
    -23	-13	-1.7	1.8	-3	-8	-11	2.2	-6	i
- COc1ccc(C(=O)NC(=S)Nc2ccccc2N2CCCCC2)cc1[N+](=O)[O-]
    39	-26	·	4.0	-4	·	·	·	0	·
- C=CCn1c2ccccc2c2nnc(SCCN3CCOCC3)nc21
    6	1	-0.8	3.7	4	-10	-9	-2.1	·	i
- COc1ccc(C(=O)N(C)C2CCCCC2)cc1OC1CCN(C(C)C)CC1
    0	-21	-0.7	-0.6	-16	0	0	-0.9	·	i
- CC(=O)c1ccc(NC(=O)c2noc3c2CCCCC3)cc1
    4	-15	·	-3.0	-5	·	·	·	-2	·
- Cc1csc(-c2cnn(-c3ccccc3)c2NC(=O)c2ccccc2)n1
    8	36	·	-1.4	5	·	·	·	·	·
- CC(Sc1nnc(NC2CCCCC2)s1)C(=O)Nc1ccc2c(c1)C(=O)c1ccccc1C2=O (stereo not drawn)
    -10	28	·	-3.7	-5	·	·	·	6	·

(cont.)
Every second line gives: T cruzi repl	Calb FLC	MLL AF4-AF9 inh	RanGTP-Impb inh	ALR H2O2 inh	rRNA inh HTS	rRNA inh HTS OD600	rRNA inh HTS RFP	Beta apoptosis	FGF22 binding
- Cc1nc2c(Cl)cccc2[nH]1
    1	-15	·	?	-4	·	·	·	-8	·
- COc1ccc(C(=O)NC2CC3CCCC(C2)N3CC(C)C)cc1OC (stereo not drawn)
    -9	-7	·	7.1	-3	·	·	·	-6	·
- O=C(Cn1cnc2c(cnn2-c2ccccc2)c1=O)Nc1ccc(S(=O)(=O)N2CCOCC2)cc1
    -9	-4	·	-2.5	-4	·	·	·	·	·
- CCOC(=O)c1c(N)sc(C(=O)N2CCOCC2)c1C
    -3	-3	·	-0.3	-2	·	·	·	-3	·
- CC(=O)c1c(C)[nH]c(C(=O)Nc2nc(-c3ccccc3)c(C)s2)c1C
    -15	-14	·	2.4	·	·	·	·	-2	·
- N#Cc1ccc(N2CCN(C(=O)c3cccs3)CC2)c(F)c1
    -12	-6	0.3	2.2	-14	-12	-11	-5.2	4	i
- Nc1cc(S(=O)(=O)N2CCCCC2)ccc1Oc1ccc(Cl)cc1
    24	14	-3.8	1.4	5	-31	-52	0.4	5	i
- Cc1ccc(NC(=S)N2CCN(C(=O)c3ccccc3)CC2)c(C)c1
    -19	-8	-2.2	1.1	0	4	5	-1.4	-1	i
